From PubChem BioAssay
PKD1 kinase inh = inhibitors of human PKD1 kinase, biochemical, fluorescence polarization; Serine/threonine-protein kinase D1 (Homo sapiens), Q15139; 200,000 compounds, 0.056% hits; PKD1 kinase fluorescence polarization assay; inhibition, %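 (about 10 µM by stock and volumes)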;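 active means inhibition of 50% or more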;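 further: controls were vehicle for no effect and a reference inhibitor for full effect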
Target sequence (Q15139 whole entry, looked up): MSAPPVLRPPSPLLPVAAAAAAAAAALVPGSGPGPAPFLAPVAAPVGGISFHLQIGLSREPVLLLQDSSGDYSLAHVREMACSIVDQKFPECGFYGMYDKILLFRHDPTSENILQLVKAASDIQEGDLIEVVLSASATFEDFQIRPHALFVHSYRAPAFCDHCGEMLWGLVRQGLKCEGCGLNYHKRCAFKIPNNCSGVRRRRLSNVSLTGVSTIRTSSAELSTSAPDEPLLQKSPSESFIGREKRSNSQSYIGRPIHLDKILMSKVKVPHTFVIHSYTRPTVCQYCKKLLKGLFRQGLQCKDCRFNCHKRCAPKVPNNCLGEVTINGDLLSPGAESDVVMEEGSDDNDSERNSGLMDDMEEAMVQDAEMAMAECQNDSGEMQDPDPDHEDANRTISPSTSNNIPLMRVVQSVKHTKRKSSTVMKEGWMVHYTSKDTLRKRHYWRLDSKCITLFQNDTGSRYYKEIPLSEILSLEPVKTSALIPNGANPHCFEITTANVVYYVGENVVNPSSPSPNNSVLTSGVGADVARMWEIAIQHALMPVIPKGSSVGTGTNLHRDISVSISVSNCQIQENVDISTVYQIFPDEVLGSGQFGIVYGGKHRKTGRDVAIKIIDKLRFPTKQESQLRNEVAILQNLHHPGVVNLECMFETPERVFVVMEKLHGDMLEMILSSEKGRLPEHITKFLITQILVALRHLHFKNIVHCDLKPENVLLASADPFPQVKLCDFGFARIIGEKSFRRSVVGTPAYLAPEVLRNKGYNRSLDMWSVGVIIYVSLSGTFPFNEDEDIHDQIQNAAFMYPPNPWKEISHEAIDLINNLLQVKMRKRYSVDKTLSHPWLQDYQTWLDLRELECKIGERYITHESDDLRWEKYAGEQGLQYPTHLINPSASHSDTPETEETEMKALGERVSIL
GALR2 agonist = GALR2 receptor agonists, primary screen, cell-based | Galanin receptor type 2 (Homo sapiens), O43603 | activation, %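 (tested at 5 µM)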 | AID 803, 2007 | 140,000 compounds, 0.48% hits | GALR2-expressing cells, agonist activation read-out;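 active means above mean plus 3 SD of all compounds, about 5% in these data, not always enough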;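 further: 0% = vehicle buffer wells and 100% = reference agonist at full effect; tested in CHO reporter cells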
HSV replic up = enhancers of HSV replication in host cells, fold increase, host cell viability. HSV replication augmentation in cells. maximum fold increase. 220,000 compounds, 0.005% hits. AID 1956, 2009;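 active means peak rise of 1.5-fold or more in the series; tested in PC3 cells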;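 further: first round at 10 µM; read as green reporter fluorescence; hits show the peak of a series up to 25 µM; 1 = signal of infected wells without compound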
RGS16-Gao HTS = modulators of RGS16 binding to Galphao, primary screen, biochemical, human proteins, multiplexed bead flow cytometry; 220,000 compounds, 0.38% hits; Regulator of G-protein signaling 16 (Homo sapiens) + Guanine nucleotide-binding protein …; binding response (% of control), % at 10 µM; AID 1441, 2008; bead-based flow cytometry RGS16-Galphao binding, fluorescence; actives lie on both sides;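 active means below 25% or above 175%, edge rows of some plates excepted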;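 further: Galphao activated by GDP with aluminum fluoride before binding; 100% = wells without compound and 0% = beads without RGS; some results beyond the cut were filed as inactive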
Insulin prom inh = inhibitors of insulin promoter-driven GFP, primary screen, imaging, TRM-6 cells (human fetal islet line), eGFP reporter, cell count; AID 1273, 2008; 130,000 compounds, 0.9% hits; inhibition, % at 2 µM; reporter expression induced with tamoxifen;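 active means inhibition above the mean plus 3 SD, with well images judged a real hit on visual review, cut at about 60% in these data, passing the limit was not always enough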
Insulin prom inh cell count = further read-out of Insulin prom inh, marked with its call; normalized cell count, %; measured here: cell count, toxicity; reference of the scale not given here;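 cells exposed to compound for 48 h; stained nuclei by imaging scaled within each plate; lower means fewer cells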
HSV replic up primary fold = second read-out of HSV replic up, no call of its own (marks repeat the call); fold increase; compound at 10 µM; measured here: primary screen fold increase 10 uM; tested in PC3 cells;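 GFP signal in the first replicate; 1 = infected wells without compound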
Active calls of the source: *; i = inactive; · = not tested or not shown.

Screens by letter – A = PKD1 kinase inh; B = GALR2 agonist; C = HSV replic up; D = HSV replic up primary fold; E = RGS16-Gao HTS; F = Insulin prom inh; G = Insulin prom inh cell count
Cc1cccc(C)c1NC(=O)CSc1nnc(C)n1CC1CCCO1 (stereo unspecified)
  A: 7.3; B: ·; C: i; D: 1; E: 104.0; F: 50.0; G: 93.4
CC(C)=CCN1CCN(Cc2ccc(C)s2)CC1CCO (stereo unspecified)
  A: 3.1; B: ·; C: i; D: 0.97; E: 103.0; F: ·; G: ·
Cc1cc(C)c(S(=O)(=O)NCCC2CCCN2C)c(C)c1 (stereo unspecified)
  A: 0.8; B: 0.2; C: i; D: 0.74; E: 99.4; F: -47.1; G: 95.3
O=C(c1ccc(F)cc1)N(c1ccccn1)C1CCCCC1
  A: -5.4; B: ·; C: i; D: 0.96; E: 96.7; F: ·; G: ·
CC(C)=CC(=O)OCC(=O)Nc1cc(C)cc(C)c1
  A: 5.5; B: ·; C: i; D: 1.09; E: 102.6; F: 36.8; G: 84.0
CNC(=O)CNC(=O)Nc1ccc(C)cc1
  A: -8.1; B: ·; C: i; D: 0.95; E: 99.8; F: ·; G: ·
COc1cc(OC)cc(-c2cc3nc4c(c(N5CCN(c6ncccn6)CC5)n3n2)CCCC4)c1
  A: -3.0; B: -0.6; C: i; D: 0.88; E: 100.5; F: ·; G: ·
NNC(=O)CS(=O)(=O)CS(=O)(=O)CC(=O)NN
  A: ·; B: ·; C: i; D: 1.08; E: 93.2; F: ·; G: ·
O=C(NNC(=S)Nc1ccc(Cl)cc1)c1cccs1
  A: -4.6; B: ·; C: i; D: 0.98; E: 106.0; F: ·; G: ·
COc1cccc(/C=C(\CC(=O)O)c2nc3ccccc3s2)c1
  A: -5.5; B: ·; C: i; D: 0.97; E: 106.0; F: 0.0; G: 102.4
COC(=O)c1ccc(Oc2nc(NC(C)C)nc(N(C)C)n2)cc1
  A: -6.2; B: -1.6; C: i; D: 0.69; E: 77.1; F: 28.6; G: 109.8
CN1CCN(S(=O)(=O)c2ccc(NC(=O)c3ccc(Br)o3)cc2)CC1
  A: -1.9; B: -2.1; C: i; D: 0.85; E: 106.9; F: -28.6; G: 135.3
COc1ccc(C(=O)N(CCN2CCOCC2)CC(=O)NC2CCCC2)cc1OC
  A: -1.4; B: -1.2; C: i; D: 0.87; E: 101.7; F: -7.1; G: 131.2
O=C(NCc1ccc2c(c1)OCO2)Oc1ccccc1
  A: -5.9; B: -3.9; C: i; D: 0.64; E: 101.0; F: ·; G: ·
O=C(C1CCCN(S(=O)(=O)c2cccc3cccnc23)C1)N1CCN(c2ccccc2F)CC1 (stereo unspecified)
  A: 13.4; B: -4.7; C: i; D: 0.94; E: 62.3; F: ·; G: ·
Cc1cc(OC(=O)C2CC2)c([N+](=O)[O-])c(=O)[nH]1
  A: 2.4; B: ·; C: i; D: 1.01; E: 98.1; F: 30.8; G: 72.0
CC(=O)Nc1ccc(Nc2ccc(S(=O)(=O)C(F)(F)F)cc2[N+](=O)[O-])cc1
  A: 9.3; B: -1.0; C: i; D: 0.97; E: 91.3; F: ·; G: ·
O=C(Cn1nnc(-c2cccs2)n1)N1c2ccccc2Sc2ccc(C(F)(F)F)cc21
  A: -6.1; B: -3.1; C: i; D: 1.02; E: 95.1; F: 80.0*; G: 179.2*
COc1c(O)ccc(/C=N/NC(=O)c2ccc3c(c2)OCCO3)c1[N+](=O)[O-]
  A: ·; B: ·; C: i; D: 1.05; E: 96.9; F: ·; G: ·
Cc1ccc2c(c1)S/C(=C/c1ccc[n+](CCO)c1)N2C
  A: -8.8; B: ·; C: i; D: 1.1; E: 100.3; F: 5.0; G: 114.7
CCNC(=S)N/N=C/c1ccc(C#N)cc1
  A: -5.0; B: ·; C: i; D: 0.99; E: 83.4; F: -57.1; G: 74.4
Cc1cccc(NC(=O)CC2NC3CCCCC3NC2=O)c1 (stereo unspecified)
  A: 11.4; B: -2.1; C: i; D: 0.67; E: 102.8; F: ·; G: ·
Cc1ccc(NC(=O)C(C)c2ccc(-c3ccccc3)c(F)c2)c(C)c1 (stereo unspecified)
  A: -4.6; B: -2.4; C: i; D: 0.9; E: 94.2; F: -12.7; G: 121.4
CN(C(=O)COC(=O)c1n[nH]c2ccccc12)c1ccccc1
  A: -8.1; B: ·; C: i; D: 0.99; E: 100.2; F: ·; G: ·
CNC(=O)c1c(NC(=O)C(C)C)sc2c1CCC2
  A: ·; B: ·; C: i; D: 0.99; E: 104.5; F: ·; G: ·

Grouped by structure, those above with a CF3 group
Screens by letter – A = PKD1 kinase inh; B = GALR2 agonist; C = HSV replic up; D = HSV replic up primary fold; E = RGS16-Gao HTS; F = Insulin prom inh; G = Insulin prom inh cell count
CC(=O)Nc1ccc(Nc2ccc(S(=O)(=O)C(F)(F)F)cc2[N+](=O)[O-])cc1
  A: 9.3; B: -1.0; C: i; D: 0.97; E: 91.3; F: ·; G: ·
O=C(Cn1nnc(-c2cccs2)n1)N1c2ccccc2Sc2ccc(C(F)(F)F)cc21
  A: -6.1; B: -3.1; C: i; D: 1.02; E: 95.1; F: 80.0*; G: 179.2*

Next records:
Screens by letter – A = PKD1 kinase inh; B = GALR2 agonist; C = HSV replic up; D = HSV replic up primary fold; E = RGS16-Gao HTS; F = Insulin prom inh; G = Insulin prom inh cell count
O=C(OCn1nnc2ccccc2c1=O)c1ccco1
  A: 1.6; B: -0.3; C: i; D: 0.88; E: 99.1; F: ·; G: ·
c1ccc(OCc2nn3c(-c4cccnc4)nnc3s2)cc1
  A: -1.7; B: -1.0; C: i; D: 0.85; E: 97.2; F: -8.7; G: 97.0
Cc1cc(C(=O)NNC(=O)Nc2ccc(Cl)cc2)no1
  A: ·; B: ·; C: i; D: 0.88; E: 102.2; F: ·; G: ·
CC(C)COc1ccccc1C(=O)NC(CO)C(=O)O (stereo unspecified)
  A: -5.2; B: -1.6; C: i; D: 0.96; E: 100.4; F: 42.9; G: 97.4
COC(=O)COc1cc2ccccc2cc1C(=O)Nc1ccccc1
  A: -10.4; B: ·; C: i; D: 0.85; E: 101.3; F: ·; G: ·
S=C(NCc1ccc(Cl)cc1)Nc1ccccc1Cl
  A: 1.9; B: 0.0; C: i; D: 0.86; E: 100.9; F: -51.7; G: 123.9
COc1cc2c(cc1NC(=O)COC(=O)CNC(=O)c1ccccc1)oc1ccccc12
  A: -3.9; B: ·; C: i; D: 0.96; E: 100.7; F: ·; G: ·
O=C(NNC(=O)C1[C@H]2CCCC[C@@H]12)Nc1cccc2ccccc12 (stereo partly specified)
  A: ·; B: ·; C: i; D: 1.01; E: 100.2; F: ·; G: ·
COC(=O)c1ccc(N2CN=C(c3ccc(C)cc3)NC2=S)cc1
  A: 0.3; B: -2.3; C: i; D: 0.84; E: 97.3; F: 31.2; G: 92.9
Clc1ccc(CNCc2cccs2)c(Cl)c1
  A: -3.7; B: -0.1; C: i; D: 0.96; E: 101.2; F: 20.0; G: 158.6
Cc1c(C(=O)NCc2ccc3c(c2)OCO3)oc2ccc(S(=O)(=O)N3CCCCCC3)cc12
  A: 2.1; B: -1.5; C: i; D: 0.9; E: 87.9; F: ·; G: ·
COc1ccc(C2SCCN2C(=S)Nc2ccc(F)cc2)cc1 (stereo unspecified)
  A: 0.3; B: -0.8; C: i; D: 1; E: 101.1; F: ·; G: ·
COc1cnc(-c2ccccn2)nc1Sc1ccc(F)cc1
  A: 3.9; B: ·; C: i; D: 0.62; E: 99.3; F: 53.3; G: 80.8
CC1(C)CC(NS(=O)(=O)c2ccc(S(=O)(=O)N3CCOCC3)cc2)CCO1 (stereo unspecified)
  A: 4.1; B: -0.3; C: i; D: 1; E: 92.3; F: ·; G: ·
COCCN(CCOC)S(=O)(=O)c1ccc(C(=O)Nc2c(C)n(C)n(-c3ccccc3)c2=O)cc1
  A: ·; B: ·; C: i; D: 1.04; E: 97.7; F: ·; G: ·
CCC(C)N(NC(C)=O)c1nc(Cl)nc(NC(C)(C)C)n1 (stereo unspecified)
  A: -8.2; B: -0.3; C: i; D: 0.99; E: 102.7; F: -37.0; G: 70.5
COc1ccccc1N(C)S(=O)(=O)c1ccc(C(=O)NC(C)c2ccccc2)cc1 (stereo unspecified)
  A: ·; B: ·; C: i; D: 0.85; E: 97.5; F: ·; G: ·
Cc1ccc(CSc2nnc(CCCCCNC(=O)OC(C)(C)C)o2)cc1
  A: ·; B: ·; C: i; D: 1.03; E: 105.8; F: ·; G: ·
Cc1nn(C)cc1/C=C/C(=O)c1ccc(O)cc1
  A: 4.1; B: -1.5; C: i; D: 0.91; E: 101.2; F: -80.8; G: 71.3
CCC1(COC(NC(=O)c2cccnc2)(C(F)(F)F)C(F)(F)F)COC1
  A: -10.3; B: -2.2; C: i; D: 0.997; E: 97.8; F: -6.9; G: 75.0
CCOC(=O)c1c(NC(=O)CSc2nnnn2-c2ccc(OC)cc2)sc(C)c1C
  A: -3.5; B: -0.5; C: i; D: 0.7; E: 70.6; F: 6.7; G: 36.6
Clc1ccccc1CSc1nnc(-c2ccccn2)n1Cc1ccco1
  A: 9.8; B: -1.3; C: i; D: 0.96; E: 97.6; F: 15.4; G: 78.1
CCN(CC)C(=O)COC(=O)c1ccc(O)cc1
  A: -9.9; B: -0.2; C: i; D: 1.06; E: 98.5; F: -17.2; G: 104.7
CCCc1cc(N2CCCC2)n2nc(C)c(-c3ccccc3)c2n1
  A: -8.2; B: 0.5; C: i; D: 0.77; E: 109.7; F: -21.1; G: 81.4
Cc1noc(C)c1C(=O)OCC(=O)Nc1cc(Cl)ccc1Oc1ccccc1
  A: 1.4; B: -1.5; C: i; D: 0.9; E: 84.0; F: -76.9; G: 117.7

Going on with the list.
Screens by letter – A = PKD1 kinase inh; B = GALR2 agonist; C = HSV replic up; D = HSV replic up primary fold; E = RGS16-Gao HTS; F = Insulin prom inh; G = Insulin prom inh cell count
COc1ccc(O[C@H]2C=C[C@@H](c3ccccc3)O[C@@H]2COC(=O)CC/C(C)=N/O[C@@H](C)CN2CCCCc3nc(C)c(C)cc32)cc1
  A: -6.2; B: -0.6; C: ·; D: ·; E: 104.6; F: -100.0; G: 71.0
C=CCn1c(SCC(=O)Nc2ccc3c(c2)OCO3)nnc1-c1ccccc1
  A: -10.1; B: 0.2; C: i; D: 1.07; E: 94.9; F: -85.7; G: 79.6
Cc1c(CCOC(=O)C23CC4CC(CC(C)(C4)C2)C3)sc[n+]1Cc1ccccc1
  A: -8.0; B: -1.3; C: i; D: 0.97; E: 105.9; F: ·; G: ·
O=C(/C=C/c1ccc(-c2ccccc2[N+](=O)[O-])o1)c1ccc(Br)cc1
  A: -0.9; B: -2.6; C: i; D: 0.73; E: 94.5; F: 4.3; G: 102.3
NC(=O)C1CCN(Cc2nc(-c3ccccc3)no2)CC1
  A: -0.5; B: -0.1; C: i; D: 0.8; E: 101.5; F: -30.8; G: 117.9
O=C1N/C(=N/O)S/C1=C\c1ccccc1-n1cccn1
  A: -2.8; B: ·; C: i; D: 1.02; E: 104.5; F: ·; G: ·
O=C(Nc1nnc(SCc2c(Cl)cccc2Cl)s1)C1CC(=O)N(c2ccc3c(c2)OCCO3)C1 (stereo unspecified)
  A: -2.4; B: ·; C: i; D: 0.94; E: 105.3; F: ·; G: ·
CCN(CC)CCCN=Cc1c(O)n(-c2c(C)cccc2C)c(=O)c2ccccc12
  A: ·; B: ·; C: i; D: 0.9; E: 93.6; F: ·; G: ·
N#Cc1nc(-c2ccco2)oc1NCCCn1ccnc1
  A: 10.6; B: -2.6; C: i; D: 0.96; E: 99.9; F: 7.1; G: 162.7
COc1ccc([C@H]2CC(=O)c3c(O)cc(O)cc3O2)cc1O
  A: ·; B: ·; C: i; D: 0.98; E: 101.2; F: ·; G: ·
S=c1nn[nH]n1C12CC3CC(CC(C3)C1)C2
  A: -4.4; B: 0.6; C: i; D: 1.12; E: 93.7; F: -33.3; G: 110.8
CCOC(=O)C1(Cc2ccc(OC)cc2)CCN(C(=O)c2cccc3nccnc23)CC1
  A: -4.4; B: ·; C: i; D: 0.96; E: 101.7; F: ·; G: ·
Cc1cccn2cc(COc3ccc(-c4ccccc4)cc3)nc12
  A: -0.7; B: ·; C: i; D: 0.91; E: 92.0; F: 45.5; G: 80.9
CCOC(=O)N1CCN(C(=O)CCN2C(=O)COc3ccccc32)CC1
  A: -3.5; B: -0.2; C: i; D: 0.97; E: 98.9; F: 78.6*; G: 89.7*

Only RGS16-Gao HTS, GALR2 agonist and Insulin prom inh (two entries from above):
SMILES	RGS16-Gao HTS	GALR2 agonist	Insulin prom inh
Cc1c(CCOC(=O)C23CC4CC(CC(C)(C4)C2)C3)sc[n+]1Cc1ccccc1	105.9	-1.3	·
CCOC(=O)C1(Cc2ccc(OC)cc2)CCN(C(=O)c2cccc3nccnc23)CC1	101.7	·	·
